Cruzain noTriton = blocks cruzain activity in detergent-free assay; P25779; purified cruzain, Z-FR-AMC fluorescence, no detergent; Potency, µM, for the others: max response, negative = inhibition, usual class: inhibitors; actives 2.3% (n = 200,000); AID 1476; active = well fitted curve in the direction sought with a large enough effect; inconclusive = small, poorly fitted or top-dose-only effect, or another doubt; inactive = no such curve, though single readings can be large; an effect the other way counts as inactive or inconclusive;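 note: plate controls were enzyme without inhibitor for no effect and buffer without enzyme for full effect; nearly all actives have a fitted effect of over 40% in size; top concentration of the series not given in the record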
Target sequence (P25779 123-467 limits assumed): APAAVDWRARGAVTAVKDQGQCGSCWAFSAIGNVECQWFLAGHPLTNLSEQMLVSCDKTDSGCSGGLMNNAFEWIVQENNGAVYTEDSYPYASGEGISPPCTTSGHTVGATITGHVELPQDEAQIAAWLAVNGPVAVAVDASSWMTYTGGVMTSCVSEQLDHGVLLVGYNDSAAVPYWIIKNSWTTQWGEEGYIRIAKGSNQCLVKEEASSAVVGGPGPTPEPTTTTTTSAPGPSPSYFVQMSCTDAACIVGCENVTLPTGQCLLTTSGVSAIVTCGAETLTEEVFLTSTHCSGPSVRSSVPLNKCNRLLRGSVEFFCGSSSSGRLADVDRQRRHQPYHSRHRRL
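Purified cruzain at 1.5 nM, pre-incubated 15 min with compound at room temperature in 100 mM sodium acetate pH 5.5, 5 mM DTT, 0.00005% Triton X-100. Reaction started with 2 uM Z-FR-AMC; AMC fluorescence increase over 60 s gives rate.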
StopGo reporter = lowers the luciferase signal of an FMDV 2A StopGo reporter; Potency, µM (top dose mostly 57.9 µM), for the others: at the highest dose signal change, negative = less light; actives 1.2% (n = 410,000); AID 1159524; human cells with a luciferase reporter of 2A StopGo recoding; control for the full effect not named in the record; active = well fitted falling curve with a large enough effect; inconclusive = small, poorly fitted or top-dose-only effect; inactive = no such curve, though single readings can be large or run the other way; tested in HEK293T cells; note: % is set by controls: 0 for no effect and ±100 for the full control effect; nearly all actives have a fitted effect of over 45% in size; luciferase light after 4 h
RE007 growth inh = less growth of the S. pombe RE007 Vpr strain | S. pombe RE007 Vpr strain, BacTiter-Glo ATP luminescence, 24 h; control for the full effect not named in the record | AID 651644 | Potency, µM (titrated, usually from 92.2 µM), without a hit: top-dose activity change, negative = less growth | actives 0.21% (n = 360,000); active = well fitted falling curve with a large enough effect; inconclusive = small, poorly fitted or top-dose-only effect; inactive = no such curve, though single readings can be large or run the other way;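 note: % is set by controls: 0 for no effect and ±100 for the full control effect; nearly all actives have a fitted effect of over 50% in size; the assay follows cell death caused by Vpr and the record does not say whether a fall means rescue or toxicity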
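Fission yeast strain RE007, carrying one chromosomally integrated HIV-1 vpr copy, was seeded at OD 0.01 in PMG+AL medium with 23 nL pinned compound. After 24 h at 30 °C and 99% humidity, viability was read by BacTiter-Glo luminescence.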
NS1 inh = influenza NS1 inhibition; S. cerevisiae slowed by influenza A NS1, growth recovery by OD600; Potency, µM (titrated, usually from 46.1 µM), for inactives: top-dose activity, positive = more growth; actives 0.4% (n = 270,000); note: actives are rising curves; nearly all actives have a fitted effect of over 50% in size
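OD600 was taken as the measure of yeast growth restored by compound in an NS1-expressing S. cerevisiae strain. Cells had been washed out of glucose medium and diluted 1:100 into galactose -URA medium, pH 6.0.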
Cruzain Triton = blocks cruzain activity in presence of Triton detergent | purified cruzain, Z-FR-AMC fluorescence, 0.01% Triton | P25779 | actives 0.43% (n = 200,000) | Potency, µM, for the others: max response, negative = inhibition, hits mostly inhibitors | AID 1478; active = well fitted curve in the direction sought with a large enough effect; inconclusive = small, poorly fitted or top-dose-only effect, or another doubt; inactive = no such curve, though single readings can be large; an effect the other way counts as inactive or inconclusive;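 note: plate controls were neutral wells for no effect and buffer without enzyme for full effect; nearly all actives have a fitted effect of over 40% in size; top concentration of the series not given in the record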
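Detergent-containing run (0.01% Triton X-100) in acetate buffer pH 5.5 with 5 mM DTT: enzyme at 1.5 nM final, 15 min compound preincubation at room temperature, then 2 uM Z-FR-AMC substrate. Activity taken as 60 s fluorescence increase at 360/450 nm.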
MARV entry inh = inhibitors of Marburg virus binding or cell entry. Marburg virus pseudotyped entry inhibition, cell reporter; control for the full effect not named in the record; about a third of the inactives were read at about 46 µM. Potency, µM (doses to about 37.8 µM), without a hit: top-dose activity change, negative = inhibition, actives largely listed as inhibitors. actives 1.8% (n = 300,000). AID 540276; active = well fitted inhibition curve with a large enough effect; inconclusive = small, poorly fitted or top-dose-only effect, or effect the other way; inactive = flat fitted curve, though single readings scatter; tested in HEK293 cells; about a fifth of its hits are not listed in these tables; note: % is set by controls: 0 for no effect and ±100 for the full control effect; luciferase read-out
LASV entry inh = blocks Lassa virus binding to or entry into cells; Potency, µM (series often up to 37.9 µM), without a hit: at the highest dose activity change, negative = inhibition, hits mostly inhibitors; actives 1.2% (n = 300,000); Lassa virus pseudotype entry inhibition, cell reporter; control for the full effect not named in the record; AID 540256; active means well fitted inhibition curve with a large enough effect; inconclusive means small, poorly fitted or top-dose-only effect, or effect the other way; inactive means flat fitted curve, though single readings scatter; tested in HEK293 cells; note: % is set by controls: 0 for no effect and ±100 for the full control effect; nearly all actives have a fitted effect of over 50% in size; luciferase read-out
SARS PLP yeast = inhibitors of SARS-CoV papain-like protease in yeast. S. cerevisiae expressing SARS-CoV PLpro, growth rescue; control for the full effect not named in the record. Potency, µM (titrated, usually from 32.9 µM), inactives show at the top dose activity, positive = growth rescue. actives 0.19% (n = 330,000). AID 485353; note: 0% is about no effect; nearly all actives have a fitted effect of over 55% in size; growth read by luminescence after 48 h
Numbers without * were called inactive; ? = inconclusive; . = no result given; & = joins results of further samples; [ ] = another dose, or the depositor's remark. Unless noted, calls come from the whole dose curve; as a rule, active means well fitted rising curve with a large enough effect; inconclusive means small, poorly fitted or top-dose-only effect; inactive means no such curve, though single readings can be large or run the other way. Potency is the fitted concentration of half-maximal effect.

SMILES	Cruzain noTriton	StopGo reporter	RE007 growth inh	NS1 inh	Cruzain Triton	MARV entry inh	LASV entry inh	SARS PLP yeast
NS(=O)(=O)c1ccc(NC(=O)c2cc(Cl)ccc2Cl)cc1	.	-9%	4%	.	.	?	-13%	4%
CCOc1ccc(NS(=O)(=O)c2ccc(C(=O)N3CCN(c4ncccn4)CC3)cc2)cc1	.	?	-10%	.	.	1%[46.1 µM]	?	2%
COc1ccc(N(CCC#N)C(=O)/C(C#N)=C\c2cccs2)cc1	.	1%	-7%	3%	.	-1%[46.1 µM]	25%[46.1 µM]	0%
COc1ccc(-c2nc(SCC(=O)Nc3ccc4c(c3)OCCO4)c(-c3ccc(C)cc3)[nH]2)cc1OC	?	-5%	.	.	-4.2%	?	?	.
COc1ccc(N2C(=O)[C@H]3[C@@H](C2=O)C2c4ccccc4C=NN2[C@H]3C(=O)C(C)(C)C)cc1 (stereo not given in full)	.	-18%	15%	-2%	.	.	.	1%
CCOC(=O)c1c(NC(=O)Cc2cccs2)sc(C(=O)NC2CCCC2)c1C	-11%	5%	-7%	6%	1.5%	1%	-22%	-2%
CC(=O)Nc1nnc(CCS(=O)(=O)c2ccc(C)c(C)c2)s1	.	35%	5%	-1%	.	.	.	1%
CC(C)OCCCNC(=O)c1ccc2c(c1)N(Cc1c(F)cccc1Cl)C(=O)c1ccccc1S2	11%	-17%	.	.	-3.1%	?	?	.
CCN(CC)CCNC(=O)c1ccc(-n2c(-c3ccccc3)cc3c2CCCC3)cc1	-5%	-16%	.	.	-2.7%	.	?	.
CC(C)NC(=O)C1CCN(C(=O)N2CCOc3ccc(Cl)cc32)CC1	-3%	-13%	.	.	-3.5%	.	-26%[46.1 µM]	.
O=C(NCc1ccc(Cl)cc1)C1CCN(c2nnc(N3CCCC3=O)s2)CC1	.	-12%	12%	15%	.	.	.	-2%
COc1cccc(S(=O)(=O)NCc2ccc(C(=O)Nc3ccc(C)cc3)cc2)c1	-6%	-16%	-17%	8%	-4.0%	-6%[46.1 µM]	-6%	-4%
C=CCOc1c(Br)cc(/C=N/n2c(CC)n[nH]c2=S)cc1Br	-7%	?	29%	19%	-1.2%	-21%	1%	1%
COC(=O)C1CCN(CC(=O)Nc2ccccc2Sc2ccccc2)CC1	.	-24%	-21%	.	.	?	-28%[46.1 µM]	-1%
COc1cc(C(=O)NCC2CCCO2)ccc1OCc1ccccc1Cl (stereo not given)	.	-18%	21%	-36%	.	-22%	-15%	6%
O=C(CN1C(=O)COc2ccc(S(=O)(=O)N3CCCCCC3)cc21)NCc1ccc(F)cc1	3%	-13%&-2%	5%	1%	-2.8%	.	0%[46.1 µM]	3%
O=c1[nH]c(=S)n(C2CC2)c(O)c1C=NCCN1CCOCC1	.	4%	3%	-4%	.	8%	-12%	0%
Cc1cccc(C(=O)NCC(=O)OCc2cc(=O)n3nc(C4CC4)sc3n2)c1	-5%	-12%	.	.	-5.4%	.	1%[46.1 µM]	.
COc1ccccc1-n1nc(C)cc1N	.	-10%	-7%	.	.	4%[46.1 µM]	9%[46.1 µM]	2%
COc1ccc(CNC(=O)c2ccccc2[N+](=O)[O-])cc1	-3%	7%	11%	4%	3.6%	?	9%	1%
CC(=O)c1ccc(NC(=S)NC(=O)/C=C/c2ccco2)cc1	.	39%[activator]	-8%	29%	.	.	.	5%
Cn1c(NC(=O)c2ccc(F)cc2)c(-c2ccccn2)c(=O)c2ccccc21	.	-14%	0%	-1%	.	.	.	-1%
Cc1c(C#N)c2ncn(Cc3ccccn3)c(=O)c2n1-c1ccccc1	5%	-22%	7%	5%	3.9%	?	-2%	1%
COC(=O)c1nc(-c2ccccc2)n[nH]1	6%	9%	-10%[3.69 µM]	-3%	1.2%	-3%	-19%	15%
CCOc1ccc2nc(CN3CCN(Cc4ccccc4OCC)C(CCO)C3)ccc2c1 (stereo not given)	.	-19%	-5%	12%	.	?	?	17%
CCCCn1c(NC(=O)C2CCCCC2)nc2ccccc21	-3%	0%	-11%	-33%	-4.5%	?	-29%	-5%
C=CCn1c(SCC(=O)c2ccc(OC)cc2)nnc1C(C)NC(=O)c1cccs1 (stereo not given)	-1%	-8%	-2%	-10%	-5.2%	1%&23%	6%	-1%
O=C(COC(=O)CCNS(=O)(=O)c1ccccc1)NNC(=O)c1ccccc1	.	0%	9%	.	.	-1%[46.1 µM]	6%	-1%
CC(=O)Nc1ccc(CN2CCN(Cc3ccc(C)cc3)C(CCO)C2)cc1 (stereo not given)	.	-15%	9%	0%	.	.	.	0%
NC1=NC2(CCCCC2)N=C(Nc2ccc(Br)cc2)N1	20µM*	?	9%	-8%	28µM*	16%	13%	-8%
CCOc1ccccc1NC(=S)Nc1ccc2cn[nH]c2c1	.	18%	12%	-79%	.	.	.	-2%
CCc1cccc(CC)c1NC(=O)C(NS(=O)(=O)c1cccs1)c1ccccc1 (stereo not given)	?	-25%	-14%	4%	-1.0%	?	-9%	-10%
CCn1c2ccccc2c2cc(NC(=S)N3CCOCC3)ccc21	-9%	34%[activator]	-12%	-2%	-0.4%	?	?	16%
CCN1CCN(CCCN(Cc2ccco2)C(=S)Nc2ccc(Cl)c(C)c2)CC1	.	-6%	-29%	-7%	.	?	?	1%
COc1cc(OC)c(NC2=NCCCCC2)cc1Cl	-3%	-8%	-15%	4%	2.4%	11%	10%	3%
COc1ccc(CCNC(=O)CC(=O)NCCc2ccc(OC)cc2)cc1	.	-4%	5%	13%	.	6%	?	0%
CSc1ccccc1C(=O)C1CCCN(Cc2cccc(C)n2)C1 (stereo not given)	.	-4%	-10%	2%	.	-13%[46.1 µM]	-1%	-1%
CCOC(=O)C1(Cc2ccccc2C)CCCN(C(=O)CCc2cccnc2)C1 (stereo not given)	.	44%[activator]	2%	-5%	.	-11%	10%	18%
CCOc1ccc(N(CC)C(=O)c2cc3c(s2)-c2ccccc2OC3)cc1	-13%	?	.	.	-8.5%	5%[46.1 µM]	.	.
COc1ccc(NC(=O)c2ccccn2)cc1	-3%	11µM*	?	-14%	2.0%	?	?	-17%
CCOc1ccccc1OCCN1CCC(Cc2ccccc2)CC1	-16%	-22%	-4%	-9%	-2.8%	?	?	15%
CCNC(=S)/C(=C(/[O-])c1ccc([N+](=O)[O-])cc1)[n+]1ccccc1	.	-17%	9%	6%	.	.	.	-2%
Cc1ccccc1S(=O)(=O)Cc1ccc(C(=O)NC2CC2)o1	.	-21%	7%	-4%	.	.	.	2%
COc1ccc(-c2cc(C(=O)OCC(=O)N3CCCCC3)c3ccccc3n2)cc1OC	.	1%	-21%	.	.	?	?	4%
CCOC(=O)C1=C(CSc2nc3ccccc3s2)NC(=O)NC1c1cc(C)ccc1C (stereo not given)	32µM*	.	-4%	16%	1.5%	?	?	-1%
Cc1nn(-c2ccccc2)c2sc(C(=O)NC3CCCCC3)cc12	-3%	.	8%	-9%	-2.0%	-23%	2%	3%
Cc1ccc(C)c(C(=O)CSc2n[nH]c(-c3ccncc3)n2)c1	8%	-7%	22%	-12%	0.3%	-8%	-2%	-4%
COc1ccc(OC)c(S(=O)(=O)N2CCCC(C)C2)c1 (stereo not given)	-7%	34%[activator]	0%	-9%	-3.3%	-1%	4%	20%
CCn1nc(C)c(CCN(C)C(=O)Nc2cc(Cl)c(OC)cc2OC)c1C	-5%	-5%	.	.	1.4%	.	-7%[46.1 µM]	.
Cc1ccc(/C(O)=C2/C(=O)C(=O)N(CCCn3ccnc3)C2c2cccnc2)cc1 (stereo not given)	.	-5%	19%	9%	.	1%[46.1 µM]	12%	.

(more compounds)
SMILES	Cruzain noTriton	StopGo reporter	RE007 growth inh	NS1 inh	Cruzain Triton	MARV entry inh	LASV entry inh	SARS PLP yeast
CC(C)(C)c1ccc(S(=O)(=O)Nc2cccc(C3OCCCO3)c2)cc1	1%	4%	7%	?	-6.9%	?	?	-2%
CCOC(=O)C1CNc2cc(S(=O)(=O)CC)ccc2O1 (stereo not given)	.	-1%	-19%	.	.	2%[46.1 µM]	5%	0%
Cc1ccc(NC(=O)C2CCC(N3C(=O)C4CCCCC4C3=O)CC2)cc1 (stereo not given)	.	-14%	-6%	-9%	.	-1%[46.1 µM]	?	-2%
Cc1ccc(S(=O)(=O)NCCC(=O)NCCN2CCCCCC2)cc1	4%	.	-5%	-8%	0.6%	0%	2%	-2%
Cc1ccc(NS(=O)(=O)c2ccc(C(=O)N3CCCC(C(F)(F)F)C3)cc2)cc1 (stereo not given)	.	-22%	-16%	.	.	?	-12%	-1%
COc1ccc(CCN2C(=O)NC(NC(=O)CC(C)C)(C(F)(F)F)C2=O)cc1OC (stereo not given)	15%	-19%	1%	?	1.9%	-3%	4%	16%
C[C@]12CC[C@H](O)CC1=CCC1C2CC[C@]2(C)C(=O)[C@H](Br)CC12 (stereo not given in full)	.	0%	4%	.	.	?	-19%	-8%
CCOc1ccc(/C=C/c2nc(C#N)c(N3CCN(c4ccc(OC)cc4)CC3)o2)cc1	3%	-14%	.	.	-0.3%	-16%[46.1 µM]	6%[46.1 µM]	.

Full records from above. Order of values: Cruzain noTriton | StopGo reporter | RE007 growth inh | NS1 inh | Cruzain Triton | MARV entry inh | LASV entry inh | SARS PLP yeast
C[C@]12CC[C@H](O)CC1=CCC1C2CC[C@]2(C)C(=O)[C@H](Br)CC12 (stereo not given in full) as listed: . | 0% | 4% | . | . | ? | -19% | -8%
Cc1ccc(NC(=O)C2CCC(N3C(=O)C4CCCCC4C3=O)CC2)cc1 (stereo not given) as listed: . | -14% | -6% | -9% | . | -1%[46.1 µM] | ? | -2%

Look-ups from the list:
CC(C)(C)c1ccc(S(=O)(=O)Nc2cccc(C3OCCCO3)c2)cc1 in Cruzain noTriton = 1%
Cc1ccc(S(=O)(=O)NCCC(=O)NCCN2CCCCCC2)cc1 in SARS PLP yeast = -2%
CCOc1ccc(/C=C/c2nc(C#N)c(N3CCN(c4ccc(OC)cc4)CC3)o2)cc1 in Cruzain noTriton = 3%

Screening data deposited in PubChem BioAssay by National Center for Advancing Translational Sciences (NCATS).
